Compound activity deposited in PubChem by Fisher Drug Discovery Resource Center.
NPYLR7 ag – mosquito NPYLR7 agonism; HEK293T NPYLR7/Galpha15, GCaMP6s calcium fluorescence; activation, % at 10 µM; 0.15% of 270,000 active; AID 1259423; in the data active = activation above about 40%;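 also: 0% = vehicle and 100% = reference agonist at the receptor; some compounds past the cut are filed as inactive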
NPYLR7 ag max-min – also measured in NPYLR7 ag; calls as there; activation, %; measured here: Max-Min RFU normalised activation; some inactives read as strong as hits;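 span of the calcium signal over five minutes; 0% = vehicle and 100% = native peptide agonist; compound fluorescence can raise it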
* hit, by the source's call; & = joins results of further samples. A portion of the library; count on the stated rates, not on these rows.

SMILES	NPYLR7 ag	NPYLR7 ag max-min
O=C1c2ccccc2NC(c2ccccn2)N1c1ccc2c(c1)OCO2 (stereo not drawn)	-1.8	6.4
OC(CNC1CCSc2ccc(F)cc21)COCc1ccccc1Cl (stereo not drawn)	4.3	3.3
Cc1cc(O)c(C=Nc2ccc(Cl)cn2)c(=O)o1	4.2	1.7
Oc1c2cccnc2cn1C[C@H]1C[C@H]2C=C[C@H]1C21CC1	13.1	-4.6
COC(=O)C1=C(NC(C)=O)CCS1	-1.1	-2.7
CC(C)(C)c1ccc(C(=O)NCC2CCCO2)cc1 (stereo not drawn)	-1.4	-8.0
COc1cccc(COC(=O)c2cccc(C)c2C)n1	-4.9	-10.6
c1cn(CCCNc2nccn3ccnc23)cn1	3.4	1.7
O=C(O)c1ccc(-n2cccc2/C=N/NC(=O)c2cc3cc(Br)ccc3o2)cc1	8.4	12.6
Cc1nn(-c2ccccc2Cl)c2sc(C(=O)OC(C)C(N)=O)cc12 (stereo not drawn)	4.7	3.8
Cc1ccc(-n2nc(-c3ccc(Cl)cc3)cc2NC(=O)C2CCC2)cc1	6.1	-1.2
CC(C)c1cc(C(=O)N2CC[C@@](C)(O)[C@@H](Cc3ccccc3)C2)on1	3.1	1.5
O=C1C2C=CC=C3C=CC=C(C32)N1c1ccc(-c2ccccc2)cc1 (stereo not drawn)	0.7	0.9
CCCCn1cnc2c(nnn2CC)c1=O	1.2	40.1
N#CC1(c2ccccc2)CCN(C(=O)C2CC=CCC2C(=O)N2CCC(O)(c3ccccc3)CC2)CC1 (stereo not drawn)	-13.7	-20.1
O=C(NCCc1csc2nc(-c3cccs3)nn12)c1ccc([N+](=O)[O-])cc1	-3.0	-3.6
O=C(O)Cn1c(=O)n(C2=CCCCC2)c2ccccc21	-1.9	-3.6
Nc1ccc(-n2nc(OCc3ccc(F)cc3)nc2-c2cccc(C(F)(F)F)c2)cc1	-3.6	-10.5
O=[N+]([O-])C(C(Cl)=C(Cl)Cl)=C(N1CCOCC1)N1CCOCC1	-15.1	-19.5
COc1cnc(-c2cc(Cl)cc(Cl)c2)c(NC(=O)c2ccsc2)n1	0.6	-2.8
O=C(NNc1nc(-c2ccccc2)c2cc(Br)ccc2n1)c1ccc(S(=O)(=O)N2CCCCC2)cc1	-8.8	-8.2
O=C1/C(=C/c2cccc(F)c2)Oc2c1ccc(O)c2CN1CCN(CCO)CC1	57.5*	57.6*
C=CCn1cc(CN2CCN3C(=O)CNC(=O)C3C2)cn1 (stereo not drawn)	2.7	2.8
CCOCCOc1nc(-c2cccc(OC)c2)n(-c2ccc(NC(=O)c3cccc([N+](=O)[O-])c3)cc2)n1	12.1	16.5
Cc1ccc(Nc2nc(Nc3cccc(F)c3)nc3nccnc23)cc1	4.5	5.2

6 of the compounds above, with two lines to a compound:
Values run as follows: NPYLR7 ag	NPYLR7 ag max-min
- O=C(NCCc1csc2nc(-c3cccs3)nn12)c1ccc([N+](=O)[O-])cc1
 : -3.0	-3.6
- O=C(NNc1nc(-c2ccccc2)c2cc(Br)ccc2n1)c1ccc(S(=O)(=O)N2CCCCC2)cc1
 : -8.8	-8.2
- N#CC1(c2ccccc2)CCN(C(=O)C2CC=CCC2C(=O)N2CCC(O)(c3ccccc3)CC2)CC1 (stereo not drawn)
 : -13.7	-20.1
- OC(CNC1CCSc2ccc(F)cc21)COCc1ccccc1Cl (stereo not drawn)
 : 4.3	3.3
- Cc1ccc(-n2nc(-c3ccc(Cl)cc3)cc2NC(=O)C2CCC2)cc1
 : 6.1	-1.2
- Cc1nn(-c2ccccc2Cl)c2sc(C(=O)OC(C)C(N)=O)cc12 (stereo not drawn)
 : 4.7	3.8

New compounds follow:
SMILES	NPYLR7 ag	NPYLR7 ag max-min
CCOC(=O)c1cccc(NC(=O)N2CCC(Cc3ccc(-n4cccc4)cc3)CC2)c1	13.9	-4.1
CCN(Cc1nc2cc(Cl)ccc2c(=O)[nH]1)C(=O)CSc1ccc(C)cc1C	19.2	7.5
Cc1ccc(Cc2nsc(N3CCC(C(=O)N4CCN(C/C=C/c5ccccc5)CC4)CC3)n2)cc1	-8.7	-14.1
COc1cc(C(C)=O)ccc1Oc1ncnc2c1cnn2-c1ccc(F)cc1	-2.2	-2.7
CC(=O)NC1CCCN(C(C)c2cccc(Cl)c2)C1 (stereo not drawn)	-2.1	-3.4
COCCN1CC(O)CN(C(=O)OCc2ccccc2)CC1=O (stereo not drawn)	21.2	27.6
C=CCNC(=O)CC1CSc2nc(C)cc(=O)n21 (stereo not drawn)	-3.8	-4.0
CCOC(=O)CCC(=O)Nc1nnc(SCc2cccc(C)c2)s1	21.9	22.6
CS(=O)(=O)c1ccc(C(NC(=O)c2ccccc2Oc2ccccc2)c2ccc3c(c2)CCO3)cc1 (stereo not drawn)	6.3	-0.5
CCOc1ccc(-n2ccnc(SCC(=O)Nc3ccccc3)c2=O)cc1	-1.4	4.5
O=C1c2ccccc2C(=O)N1Cc1nc2cc(Cl)ccc2c(=O)o1	-7.5	-12.3
CCOc1ncccc1NC(=O)c1cc(F)cc(F)c1	6.7	5.2
O=C(CCc1ccc(-c2ccc(Cl)cc2)[nH]1)N1CCOC(C(F)(F)F)C1 (stereo not drawn)	8.6	6.1
COC(=O)[C@@H]1C[C@H](C(=O)NCc2ccc(C)o2)[C@H](c2cccc(F)c2F)N1C	-1.3	-4.0
CCn1c(C2CCCN(c3nc4ccccc4s3)C2)nn(C)c1=O (stereo not drawn)	-3.6	-3.2
COC(=O)Cn1cnc(S(=O)(=O)N2CCCC2)c1	8.5	5.0
CCOc1ccc(C(=O)N2C[C@@H](N)C[C@H]2C(=O)NC)cc1OCC	-0.2	-4.7
CCCCN(Cc1cccn1Cc1ccc(Br)cc1)C(=O)CN(C(=O)CCc1ccccc1)C(C)C	-2.3	0.3
O=C(Nc1nnc(S(=O)(=O)NCc2ccccc2)s1)c1ccccc1	-4.8	-8.8
CNc1nc(-c2cc(OC)ccc2OC)cs1	18.2&9.5	11.2&7.8
Cc1c(C(C)NC(=O)CCn2cnc3ccccc3c2=O)cnn1-c1ccccn1 (stereo not drawn)	1.1&-0.5	-2.5&-2.4
CC1(c2ccccc2)NC(=O)N(CN2CCc3ccccc3C2)C1=O (stereo not drawn)	2.0	-2.2
CCOCCOc1nc(-c2ccc3c(c2)OCO3)n(-c2ccc(NC(=O)c3ccc(Cl)cc3Cl)cc2)n1	24.6	20.8
CC(=O)SCC(=O)C(C#N)c1nc2cc(C)c(C)cc2[nH]1 (stereo not drawn)	4.1&5.9	1.9&3.8
Cc1noc2ncc(C(=O)N3CCCC3c3ccc(C(C)(C)C)cc3)cc12 (stereo not drawn)	8.4	6.0

Six consecutive entries from above, for reference:
SMILES	NPYLR7 ag	NPYLR7 ag max-min
O=C(CCc1ccc(-c2ccc(Cl)cc2)[nH]1)N1CCOC(C(F)(F)F)C1 (stereo not drawn)	8.6	6.1
COC(=O)[C@@H]1C[C@H](C(=O)NCc2ccc(C)o2)[C@H](c2cccc(F)c2F)N1C	-1.3	-4.0
CCn1c(C2CCCN(c3nc4ccccc4s3)C2)nn(C)c1=O (stereo not drawn)	-3.6	-3.2
COC(=O)Cn1cnc(S(=O)(=O)N2CCCC2)c1	8.5	5.0
CCOc1ccc(C(=O)N2C[C@@H](N)C[C@H]2C(=O)NC)cc1OCC	-0.2	-4.7
CCCCN(Cc1cccn1Cc1ccc(Br)cc1)C(=O)CN(C(=O)CCc1ccccc1)C(C)C	-2.3	0.3

Later entries.
SMILES	NPYLR7 ag	NPYLR7 ag max-min
CCOc1ccc(CSc2n[nH]c(-c3ccccn3)n2)nc1	13.9	10.1
Cc1cc(Cl)ccc1Nc1nc(NCCc2ccccc2)nc2nccnc12	1.7	10.3
c1ccc2c(c1)SCCN2c1ncnc2sc3c(c12)CCCC3	-4.1	-10.0
CCCc1c(OCCCOc2ccc(OCC(=O)O)cc2)ccc(C(C)=O)c1O	0.4	-26.3
COc1ccc(N2C(=O)CC(NCCc3ccc(OC)c(OC)c3)C2=O)cc1 (stereo not drawn)	-2.2	-7.6
CC(C)c1nnc(SCC(=O)N2c3ccccc3CCC2C)n1C1CC1 (stereo not drawn)	6.6	1.5
Cc1ccc(Cl)c(OC2CC3CCC(C2)N3C(=O)c2ccc(CSc3cccc(F)c3)cc2)c1 (stereo not drawn)	3.8	3.9
CC1=C(C(=O)O)N2C(=O)[C@@H](NC(=O)C(N)C3=CCC=CC3)[C@H]2SC1 (stereo partly drawn)	5.0	-6.8
COc1cccc(NC(=O)CCC2CCN(C(=O)c3c4c(nn3C)CCCC4)CC2)c1	4.0	-1.6
CN1CCC2(CC1)CN(C(=O)c1nc3ccccc3[nH]1)CCN2C	19.4	6.4
CCc1ccc(NC(=O)NCCc2cscn2)cc1	11.2	8.8
CN(C)CCCN(C(=O)c1ccc2ccccc2c1)c1nc2c(F)cccc2s1	-2.7	-3.6
CCCCC(O)Cc1ccccn1 (stereo not drawn)	15.6	8.1
CN(Cc1ccccc1C(F)(F)F)C(=O)CCn1cnnn1	0.5	2.7
CCOC(=O)CCC(=O)Nc1nnc(SCc2ccc(C#N)cc2)s1	7.7	20.6
Cc1ccc2cc(C3=C/C(=C/c4ccco4)C(=O)O3)ccc2c1	-6.2	-11.6
c1cc(-c2nccn2-c2ccc3cn[nH]c3c2)c2nonc2c1	-7.9	-13.6
Cc1cc(=O)[nH]c(NNS(=O)(=O)c2ccc3ccccc3c2)n1	-2.1&0.8	-2.5&0.6
COC(=O)c1ccc(-c2noc(CN3C[C@H](O)[C@@H](N4CCCC4)C3)n2)cc1	6.5	4.2
O=C(Nc1cccc(F)c1)c1cn(CC2CCCO2)cc2c(=O)n(-c3ccccc3)nc1-2 (stereo not drawn)	5.5	4.1
CCc1[nH]n(-c2ccccc2)c(=O)c1C1=C([n+]2ccccc2)C(=O)N(C2CCCCC2)C1=O	-3.4	-1.1
N#Cc1c(-c2ccncc2)cc(-c2ccc(F)cc2)nc1N	5.5	2.7
C(=C\c1nc(-c2cccs2)cs1)/c1ccc2c(c1)OCCO2	3.9	0.0
CC1CN(C(=O)c2cc3ccc(C(C)(C)C)cc3[nH]2)CC(C)O1 (stereo not drawn)	-0.3	-2.1
O=C(NCc1c(F)cccc1Cl)c1ccc(-c2ccc(Oc3ccccc3)cc2)s1	4.1	1.4

Additional results.
SMILES	NPYLR7 ag	NPYLR7 ag max-min
Cc1ccc(CN(C)C(=O)Nc2ccc(N3CCOCC3)cc2C)cc1	-0.6	-1.3
CCOC(=O)c1csc(CN(CCCOC)S(=O)(=O)c2ccc(Cl)cc2)n1	-7.7	-5.9
COc1ccccc1CC(=O)N1CCC(n2nccc2NC(=O)C2CCOC2)CC1 (stereo not drawn)	1.1	-1.7
Cc1nnsc1C(=O)N1CCCC(N2CCN(Cc3ccc4c(c3)OCO4)CC2)C1 (stereo not drawn)	7.7&11.8	10.6&7.4
COc1cn(CC(=O)Nc2ccc(C)c(Cl)c2)c(CN2CCCCC2)cc1=O	-2.5	-3.4
Cn1c(-c2ccsc2)cc2c(Nc3cccnc3)nccc21	-6.8	-8.3
Cc1cc(NC(=O)c2ccc(S(=O)(=O)N(C)C3CC3)cc2)n(-c2nc3c(F)cccc3s2)n1	-7.9	-11.3
CCOC1CC(O)C12CCN(c1cncc(Br)c1)CC2 (stereo not drawn)	-23.8	-23.1
Cc1ccc(-c2ccsc2C(=O)NNS(=O)(=O)c2cc(Cl)c(C)c([N+](=O)[O-])c2)cc1	3.8	3.3
COc1cccc(C(=O)N2CCCC(Nc3cc(C)ccc3F)C2)c1 (stereo not drawn)	-0.6	5.4
Cc1cc(C(F)(F)F)n(-c2nc(C(=O)N3CC[C@H]4CC[C@@H](C3)N4)cs2)n1	-1.0	0.4
CN(C)Cc1cncc(Oc2cc(F)c(CN3CCCC3)c(Cl)c2)n1	8.7	-1.1
CCNC(=O)Nc1ccc(N(C)C)c(CN(C(=O)NC(C)(C)C)C(C)C(C)C)c1 (stereo not drawn)	20.3	22.6
c1ccc(-c2ncc(CN3CCC(OCc4cccnc4)CC3)cn2)nc1	-2.0	-10.1
Cc1ccc(C(=O)N2CCC[C@@H]2C(N)=O)cc1NC(=O)C1CC1	25.3	15.3
CCOCCn1c(=O)c2c(nc3n(-c4cc(C)cc(C)c4)c(C)c(C)n23)n(C)c1=O	-0.9	1.7
CCOC(=O)C1=C(C)NC(=S)NC1c1ccco1 (stereo not drawn)	3.0	1.7
